Mtb H37Rv: M. tuberculosis H37Rv growth inhibitors, H37Rv strain (AID 1626); M. tuberculosis H37Rv growth inhibition; higher % means a stronger effect; inhibition, % at 10 µM; hits with a dose series show IC50 in µM; 0.95% of 220,000 active;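 active means confirmed in a dose series; inconclusive means inhibition above 80% but not taken into the dose series; inactive means below 80% or under 30% at every dose of the series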;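 further: bacteria incubated seven days before Alamar blue readout; 0% = bacteria only wells and 100% = bacteria with antibiotic wells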
Arbovirus anti: antivirals against arbovirus infection; arbovirus infection cell-based antiviral screen; inhibition, % at 10 µM; 0.37% of 200,000 active; AID 1251;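 active means inhibition from about 30%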;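 further: bluetongue infection of BSR cells; cell survival read as ATP light after 72 h; 0% = infected wells without compound and 100% = uninfected wells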
Mtb betalactam: beta-lactam sensitization of Mtb H37Rv | AID 434955 | M. tuberculosis H37Rv growth with meropenem, percent inhibition; hits of this screen are not shown here | inhibition, % at 25 µM | 0.27% of 330,000 active;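 active means about 74% or more and at least 40 points above the plate without the antibiotic, then above 30% in a dose series; inconclusive means first-round hits that could not be retested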;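 further: growth measured after seven days incubation then overnight dye step; 0% = bacteria only wells and 100% = bacteria with antibiotic; twin plates without the antibiotic show which effects depend on it; some results filed as inactive read as strong as hits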
YopH inh: blocks Yersinia enterocolitica YopH tyrosine phosphatase; fluorescence Ex485/Em525; inhibition, %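 (about 10 µM by stock and volumes)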; 0.16% of 140,000 active; AID 898;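 active means inhibition of 50% or more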;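 further: controls were vehicle for no effect and minimum signal wells for full effect; inactives centre near -20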
RecA splice inh: blocks M. tuberculosis RecA intein splicing | inhibition, %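 (about 9 µM by stock and volumes)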 | AID 2221 | cell-free RecA intein splicing, fluorescence | P9WHJ3 | 0.75% of 290,000 active; in the data active means inhibition above about 30%; inconclusive means no clear call, values can overlap the other calls;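 further: 0% = vehicle wells and 100% = reference inhibitor control wells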
Target sequence (P9WHJ3 whole entry, looked up, canonical isoform): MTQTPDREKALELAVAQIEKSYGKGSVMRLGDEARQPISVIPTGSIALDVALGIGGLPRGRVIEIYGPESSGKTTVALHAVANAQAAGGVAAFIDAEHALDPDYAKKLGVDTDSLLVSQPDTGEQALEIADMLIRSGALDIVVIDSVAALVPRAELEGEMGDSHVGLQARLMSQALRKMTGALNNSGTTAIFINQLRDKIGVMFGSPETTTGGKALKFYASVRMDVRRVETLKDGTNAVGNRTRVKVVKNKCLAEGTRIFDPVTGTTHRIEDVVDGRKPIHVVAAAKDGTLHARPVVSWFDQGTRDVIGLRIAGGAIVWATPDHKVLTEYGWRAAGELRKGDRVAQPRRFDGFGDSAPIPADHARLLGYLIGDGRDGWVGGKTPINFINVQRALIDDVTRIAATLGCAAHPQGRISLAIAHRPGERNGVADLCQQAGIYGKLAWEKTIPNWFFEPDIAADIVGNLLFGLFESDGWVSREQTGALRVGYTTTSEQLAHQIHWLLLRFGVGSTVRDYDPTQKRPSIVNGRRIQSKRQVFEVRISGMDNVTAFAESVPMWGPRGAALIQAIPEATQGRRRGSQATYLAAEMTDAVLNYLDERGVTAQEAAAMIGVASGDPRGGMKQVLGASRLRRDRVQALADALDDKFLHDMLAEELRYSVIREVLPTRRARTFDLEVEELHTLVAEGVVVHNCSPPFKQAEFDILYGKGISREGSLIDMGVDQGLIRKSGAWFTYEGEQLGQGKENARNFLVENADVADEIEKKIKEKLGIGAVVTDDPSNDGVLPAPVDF
Arbovirus anti repeat: recorded beside Arbovirus anti, whose call it bears; inhibition, %; measured here: 10K subset replicate screen; many hits read low in the repeat;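 first of two repeat runs on a subset; 0% = infected and 100% = uninfected wells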
* = called active by the depositor; ? = inconclusive; · = no result given. The list is partial; the hit share may differ from the screen's.

SMILES	Mtb H37Rv	Arbovirus anti	Mtb betalactam	YopH inh	RecA splice inh	others
CCCC(c1nnnn1C(C)(C)CC)N(CCCO)Cc1cc2cc(C)cc(C)c2[nH]c1=O (stereo not drawn)	2%	-11	22	-57	2.0
CCN(CC)c1ccc(C(=O)NNC(=O)CCc2nc3ccccc3c(=O)[nH]2)cc1	·	·	2	·	1.7
COc1ccc(OC)c(C(C)NC(C)=O)c1 (stereo not drawn)	-2%	1	8	-25	0.2
O=C(CC(C(=O)O)c1cccc(Cl)c1)c1ccccc1 (stereo not drawn)	·	·	2	·	-1.4
S=c1[nH]nc(-c2cccnc2)n1C1CCCCC1	6%	4	7	-24	3.9
Cc1ccc(S(=O)(=O)N2CCN(C(=O)CC(C)n3cncn3)CC2)cc1 (stereo not drawn)	·	·	-10	·	0.0
COc1ccccc1NS(=O)(=O)c1ccc2oc(=S)[nH]c2c1	-11%	·	-2	·	-0.7
CN(C)CCCCOc1ccccc1-c1ccccc1	-4%	-9	-2	10	-0.1
COc1ccc(C2N(Cc3ccccc3)CC(=O)N2/N=C(\C)c2ccccc2)cc1 (stereo not drawn)	9%	2	-1	-18	-1.7
O=C(NCc1ccccc1)c1ccc(S(=O)(=O)N2CCCC2)cc1	-10%	-3	-4	-13	·
COC(=O)Cn1c(C)nc2ccccc21	1%	-2	-6	-3	-0.2
c1cncc(-c2nc3ccccc3s2)c1	-4%	·	-5	·	-1.7
Cc1cc(=O)oc2c(N)c(O)ccc12	-11%	5	-1	-22	·	Arbovirus anti repeat=7
CC(C)(C)C(=O)NC(C(N)=O)=C(Cl)Cl	-9%	1	3	4	2.5
O=C(OCCCc1ccncc1)c1ccc(S(=O)(=O)N2CCOCC2)cc1	-8%	6	4	-6	3.1
O=C(CSC(=S)N1CCOCC1)Nc1nc(=O)c2ccccc2s1	-6%	0	0	8	-0.6
O=C(O)CC(NCc1ccco1)C(=O)Nc1cccc(O)c1 (stereo not drawn)	·	·	6	·	-1.4
COc1cc(C2Nc3ccccc3C(=O)N2NS(C)(=O)=O)ccc1O (stereo not drawn)	1%	·	-7	·	-1.6
CC(C)(C)CC(=O)Nc1nnc(C(F)(F)F)s1	4%	11	-9	-26	1.4
CN(C)CCNC(=O)C1CC(=O)N(c2ccc(F)c(Cl)c2)C1 (stereo not drawn)	-8%	8	-10	1	2.4
Oc1ccc(/C=N/Nc2cc(N3CCOCC3)nc(N3CCOCC3)n2)cc1O	2%	-18	-2	-16	-8.0
CC(C)N1CCN(Cc2nc3ccccc3s2)CC1CCO (stereo not drawn)	-13%	-2	1	·	0.1
O=C(Nc1ccc(F)cc1F)c1ccc(-n2cccn2)c([N+](=O)[O-])c1	2%	-5	-1	·	1.0
CC1CN(c2ncnc3c2c(-c2ccccc2)cn3-c2ccc(F)cc2)CC(C)O1 (stereo not drawn)	8%	-16	39	·	9.9
COc1ccccc1C(=O)NC(=O)COC(=O)/C(=C/c1ccccc1)NC(C)=O	·	·	-9	·	-1.0

Looked up by structure from the list above, 2 records:
SMILES	Mtb H37Rv	Arbovirus anti	Mtb betalactam	YopH inh	RecA splice inh	others
Cc1cc(=O)oc2c(N)c(O)ccc12	-11%	5	-1	-22	·	Arbovirus anti repeat=7
COc1cc(C2Nc3ccccc3C(=O)N2NS(C)(=O)=O)ccc1O (stereo not drawn)	1%	·	-7	·	-1.6

More compounds follow:
SMILES	Mtb H37Rv	Arbovirus anti	Mtb betalactam	YopH inh	RecA splice inh	others
Cc1ccc2nc(Nc3nc(-c4ccccc4)cc(=O)[nH]3)nc(C)c2c1	7%	-5	5	-22	4.2
O=C(CN1C(=O)NC2(CCCC2)C1=O)Nc1cc(Cl)ccc1N1CCCCC1	·	·	2	·	2.2
O=C(NCc1ccco1)c1c(F)cccc1Cl	0%	-3	9	-22	-1.3
CCC1(CC)NC(=O)N(CC(=O)OC(C)C(=O)Nc2ccc(NC(C)=O)cc2)C1=O (stereo not drawn)	·	·	-1	·	-6.7
COc1ccc(Sc2cnn(-c3ccccc3)c(=O)c2Cl)cc1	13%	6	-10	-19	24
COc1ccc(OCc2nn3c(-c4ccccn4)nnc3s2)cc1	-13%	6	3	-47	0.3
O=C(CSc1nc2ccccc2[nH]1)N/N=C/c1ccco1	·	·	2	·	-1.6
COC(=O)C1=C(C(=O)OC)C2(OC1c1ccc(Br)cc1)C(=O)c1ccccc1C2=O (stereo not drawn)	-1%	-2	-2	-43	0.8
CCCC(NCC(O)COc1ccc(-c2ccccc2)cc1)c1ccccc1 (stereo not drawn)	?	-40	100	·	4.0
CC(C)CCNC(=O)Cc1ccccc1[N+](=O)[O-]	-9%	0	0	-30	1.8
Cc1ccc(NNC(=O)c2ccno2)cc1Cl	10%	·	90	·	-2.5
CCOC(=O)C1=C(N)OC2=C(C(=O)CCC2)C1c1cccs1 (stereo not drawn)	-14%	2	5	-32	0.2	Arbovirus anti repeat=-3
Cc1ccc(/C=C2\C(=O)NC(=S)N(c3ccc(F)cc3)C2=O)o1	·	·	-6	·	-4.5
COc1ccc(-n2nnnc2-c2cnc3cc4c(cc3c2C)OCO4)cc1	-10%	1	19	-24	-0.9
CCCOC(=O)CSc1nc(N)c(C#N)c(CC)c1C#N	-6%	3	29	-13	0.8
COc1ccccc1C(=O)NC(=O)COC(=O)c1ccc(C)o1	·	·	6	·	5.4
COc1n[nH]c(C(=O)Nc2cc(Cl)ccc2Cl)c1[N+](=O)[O-]	78%	4	36	·	3.1
CCC(=O)Nc1ccc(Cl)c(NC(=O)c2cccnc2)c1	-5%	2	3	4	5.1
O=C(Nc1ccc(CN2CCOCC2)cc1)c1ccc(-c2ccc(Br)cc2)o1	7.1µM*	-28	89	-30	0.8
O=C(Nc1c(-c2cccs2)nc2ccccn12)c1ccc2ccccc2c1	1%	2	10	-28	-0.2
O=Cc1c(C(=O)O)n(Cc2ccccc2Cl)c2ccccc12	0%	9	3	·	2.6
CCCc1cc(=O)[nH]c(SCc2ccccc2)n1	-6%	5	-11	-15	1.9
CCN(CC)C(=O)CSc1nc2cc3c(cc2c(=O)n1CCCC(=O)NCc1ccc(OC)cc1)OCO3	0%	2	-2	·	5.6
COc1cccc(NC(=S)NNC(=O)c2ccccc2OC(F)F)c1	-13%	-19	0	-23	-2.0
CN(C(=O)C1CCN(c2ncnc3c2nc2n3CCCCC2)CC1)C1CCCCC1	·	·	-3	·	1.8

(listing goes on)
SMILES	Mtb H37Rv	Arbovirus anti	Mtb betalactam	YopH inh	RecA splice inh	others
COc1ccc(Cc2n[nH]c(=O)c3ccccc23)cc1OC	-10%	-3	4	-3	-2.1
O=C(Nc1cc(S(=O)(=O)N2CCCCC2)ccc1O)c1ccccc1NS(=O)(=O)c1ccc(F)cc1	1%	20	6	-55	6.9
Cc1ccc(CN2CCN(Cc3cccc(C)n3)CC2CCO)cc1 (stereo not drawn)	-3%	7	7	·	-1.1
CCOC(=O)c1c(C)oc2c1cc(O)c1ccccc12	5%	-7	8	2	5.7
O=C(N/N=C\c1cccnc1)C1c2ccccc2Oc2ccccc21	-4%	10	3	·	1.5
COc1ccc(C(=O)COC(=O)c2cnc(C)cn2)c(OC)c1	·	·	0	·	1.1
CCC(C)NC(=O)C(=O)NCc1ccncc1 (stereo not drawn)	-12%	-2	-4	-57	0.6
Cc1nc(N2CCOCC2)[nH]c(=O)c1C	5%	5	-6	·	-4.5
Cc1ccc2nc(NC(=O)CN3C(=O)NC4(CCCC4)C3=O)sc2c1	·	·	-13	·	-3.2
COc1ccccc1NC(=O)C(=O)NCc1ccncc1	-4%	2	3	-30	-0.3
CNCc1ccccc1Sc1cccc2ccccc12	14%	-41	1	-24	-0.6
O=C(COC(=O)CCc1ccc(S(=O)(=O)N2CCCCC2)cc1)Nc1cccc2ccccc12	-1%	8	1	-6	-0.2
COc1ccc(C2(c3ccc(OC)cc3)NC(=O)N(CC(=O)Nc3cc(C)ccc3OC)C2=O)cc1	·	·	28	·	-2.0
COc1cccc(/C=N/N2CCN(C3c4ccccc4-c4ccccc43)CC2)c1O	-2%	·	5	·	5.8
CCOc1cc(C2CC(=O)NC(SCC)=C2C#N)ccc1O (stereo not drawn)	5%	12	-2	-43	3.3	Arbovirus anti repeat=7
CN1CCN(C(c2cccnc2)c2ccc3cccnc3c2O)CC1 (stereo not drawn)	-11%	-35	70	-68	5.8
Cc1cc2c(cc1C)CSC(c1ccc(O)cc1)SC2	4%	2	8	18	0.4
O=C(CC(c1ccccc1)c1ccccc1)Nc1ccc(O)cc1	·	·	-5	·	5.3
O=C(N/N=C/c1ccc(-c2ccc(Br)cc2)o1)c1ccc2c(c1)OCO2	?	-7	98	·	-2.4
c1ccc(-c2cc(-c3nc(-c4ccccn4)no3)c3ccccc3n2)cc1	10%	·	82	6	-0.7
O=C(O)CCn1nnc(-c2cccs2)n1	-8%	9	-11	-27	-0.5
CC(C)(CN1CCN(C(c2ccccc2)c2ccccc2)CC1)NS(=O)(=O)c1ccccc1	17%	·	7	·	5.0
Cc1ccc(S(=O)(=O)N(C)C)cc1-n1c(SCC(=O)Nc2ccc(F)cc2Cl)nc2ccccc2c1=O	5%	-5	4	-28	3.0
CC(=Nc1ccccc1)C1=C(O)COC1=O	15%	13	-4	-54	1.7
CCC(NC(=O)NCc1ccc2c(c1)OCO2)(C(F)(F)F)C(F)(F)F	-2%	-7	3	-46	-1.6

Gathered by group: those above containing a tert-butyl group (two)
SMILES	Mtb H37Rv	Arbovirus anti	Mtb betalactam	YopH inh	RecA splice inh	others
CC(C)(C)C(=O)NC(C(N)=O)=C(Cl)Cl	-9%	1	3	4	2.5
CC(C)(C)CC(=O)Nc1nnc(C(F)(F)F)s1	4%	11	-9	-26	1.4

The listing picks up, starting four compounds before the break.
SMILES	Mtb H37Rv	Arbovirus anti	Mtb betalactam	YopH inh	RecA splice inh	others
CC(C)(CN1CCN(C(c2ccccc2)c2ccccc2)CC1)NS(=O)(=O)c1ccccc1	17%	·	7	·	5.0
Cc1ccc(S(=O)(=O)N(C)C)cc1-n1c(SCC(=O)Nc2ccc(F)cc2Cl)nc2ccccc2c1=O	5%	-5	4	-28	3.0
CC(=Nc1ccccc1)C1=C(O)COC1=O	15%	13	-4	-54	1.7
CCC(NC(=O)NCc1ccc2c(c1)OCO2)(C(F)(F)F)C(F)(F)F	-2%	-7	3	-46	-1.6
CC(NS(C)(=O)=O)C(c1cccs1)N1CCN(C)CC1 (stereo not drawn)	2%	3	-8	-42	1.5
O=C(c1ccco1)N1CCC(c2nc3ccccc3[nH]2)CC1	·	·	-2	·	0.8
CC(C)(C)N(Cc1cc2ccccc2[nH]c1=O)C(=O)C1CCCCC1	-6%	-6	1	-9	0.9
O=C(CC1NCCNC1=O)Nc1cc(Cl)cc(Cl)c1 (stereo not drawn)	-12%	1	11	-17	2.1
CCOC(=O)CCCC(=O)N1CCOCCOCCOCC1	-3%	·	-1	·	2.4
Cc1ccn2cc(-c3cnoc3C)nc2c1	-4%	-2	-9	13	0.0
CN(C)S(=O)(=O)N(CC(=O)Nc1ccccc1)c1ccccc1	1%	-1	-3	1	2.2
O=C(NCC1CCCO1)c1cc2cc(Cl)ccc2[nH]1 (stereo not drawn)	·	·	-3	·	0.8
COc1ccc(-c2csc(NC(=S)NC(=O)c3ccco3)n2)cc1Br	·	·	6	·	0.6
CCn1c(COc2ccccc2C)nnc1SCC(=O)N1CCN(c2ccccc2)CC1	1%	-33	4	-23	1.2
CCOC(=O)C1CCN(S(=O)(=O)c2ccc(Cl)nc2)CC1	-13%	·	-6	·	-1.7
Nc1cc(Cl)ccc1Nc1ccncc1	·	·	0	·	0.2
CCc1ccc(NC(=O)CS(=O)CC(=O)NCCCc2ccccc2)cc1 (stereo not drawn)	-15%	-3	13	-3	-1.9
CCOc1ccc(C2C(C(=O)O)c3ccccc3C(=O)N2CCN2CCOCC2)cc1 (stereo not drawn)	-3%	2	-2	-42	0.3
Cc1cccc(N=CC=C2OC(C)(C)C(C)(C)O2)c1	1%	-8	-4	-39	-12
COC(=O)c1c(NC(=O)CN2CCN(S(=O)(=O)c3ccccc3[N+](=O)[O-])CC2)sc2c1CCC(C)C2 (stereo not drawn)	-2%	-3	-7	-19	0.3
Cc1ccc(N(C(=O)Cc2c[nH]c3ccccc23)C(C(=O)NC2CCCCC2)c2ccco2)cc1 (stereo not drawn)	1%	-13	12	-31	0.4
OCC1(Cc2ccccc2F)CCCN(Cc2c(F)ccc(F)c2F)C1 (stereo not drawn)	·	·	8	·	5.9
COc1ccc(-n2nnnc2SCC(=O)c2ccc3c(c2)OCCO3)c(OC)c1	·	8	4	-40	0.6
COc1cc(OC)c(C2=NOC(C(=O)N3CCN(C(=O)c4ccco4)CC3)C2)cc1Cl (stereo not drawn)	-3%	0	2	·	-0.3
CC(=O)NC(Cc1ccc(F)cc1)C(=O)NC1CCN(c2nnnn2-c2ccccc2)CC1 (stereo not drawn)	-5%	1	-6	-21	-0.1
